HNF4A DNA FP: change in binding of human HNF4 alpha to DNA; P41235; HNF4a-FITC DNA binding, fluorescence polarization, 1 h; 360,000 tested, 0.3% active; activity change, % at 10 µM; in the data active means activity change above about 30%, passing the limit was not always enough;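 further: controls were the assay level and a saturating level of protein; the project sought stronger binding though the title names inhibitors; some compounds called inactive have numbers as strong as hits; positive values seem to mean higher polarization but the record does not say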
Target sequence (P41235 whole entry, looked up): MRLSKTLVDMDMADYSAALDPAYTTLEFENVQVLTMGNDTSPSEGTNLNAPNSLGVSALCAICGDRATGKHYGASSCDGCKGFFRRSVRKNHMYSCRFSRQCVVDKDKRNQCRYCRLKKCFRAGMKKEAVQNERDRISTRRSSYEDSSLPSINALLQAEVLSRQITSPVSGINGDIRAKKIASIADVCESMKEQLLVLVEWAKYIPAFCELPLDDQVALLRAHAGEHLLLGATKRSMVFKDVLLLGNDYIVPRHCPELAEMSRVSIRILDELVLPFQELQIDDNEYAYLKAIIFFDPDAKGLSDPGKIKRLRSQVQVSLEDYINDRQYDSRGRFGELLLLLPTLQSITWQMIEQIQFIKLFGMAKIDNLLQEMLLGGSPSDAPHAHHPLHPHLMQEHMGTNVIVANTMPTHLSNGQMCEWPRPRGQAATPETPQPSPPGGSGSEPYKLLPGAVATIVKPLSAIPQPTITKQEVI
B2AR ag: activates human beta-2 adrenergic receptor causing internalization. AID 504454. response, % (test concentration not listed). 340,000 tested, 0.43% active. P07550. Am2.2-beta2AR cells, FAP receptor internalization, flow cytometry; reference of the scale not given here;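 active means response above a set limit, near 3 SD of response in nonfluorescent compounds, cut at about 42% in these data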;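 further: stock transfer was 100 nL into about 11 µL; a reference agonist was the positive control; negative values mostly stem from fluorescent compounds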
LANA-H2B inh: blocks KSHV LANA binding to histone H2A/H2B; 320,000 tested, 0.6% active; Q9QR71; inhibition, % (test concentration not listed); cell-free LANA-H2A/H2B peptide, fluorescence polarization; in the data active means inhibition mostly above about 10%, no sharp cut-off; inactive means mostly below about 6.7%;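 further: stock transfer was 7.5 nL into about 10 µL; 0% = median of vehicle wells and 100% = median of positive control wells; one replicate is shown; the record names a cut of 25% in any replicate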
Vif A3G: inhibitors of Vif binding to APOBEC3G peptide, primary screen, biochemical, TR-FRET, GST-Vif 1-94, biotin-A3G peptide, dose response retest (AID 1117319) | TR-FRET GST-Vif / biotin-A3G peptide binding; higher % means a stronger effect; test concentration not given here; strong numbers were not always called active | inhibition, %; hits with a dose series show IC50 in µM | 260,000 tested, 0.57% active;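 active means above the screen mean plus three standard deviations and confirmed in dose response; inconclusive means results disagree or hit not tested in dose response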;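 further: Vif residues 1-94 fused to GST binding biotinylated APOBEC3G peptide 110-148; 0% = full assay without inhibitor and 100% = GST in place of GST-Vif; retest series ran down from 100 µM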
A1 inh: inhibitors of the anti-apoptotic protein A1, read as caspase activation. MEF A1-2A-BIM cells, Caspase-Glo 3/7 luminescence, 3 h; percent of clofoctol response, vehicle zero. caspase activation, % (test concentration not listed). 330,000 tested, 0.066% active;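 active means over half of replicate activation scores above 10%, or exactly half above 10 with the replicate mean above 10; inconclusive means replicate mean below 10 yet half the replicates above 10; inactive means over half of replicates below 10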;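 further: wells of about 30 µL received 50 nL stock; many hits fall short of the cut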
UCH37 DUB inh: blocks the human deubiquitinase UCH37 | 330,000 tested, 0.33% active | Q9Y5K5 | inhibition, % (test concentration not listed) | purified proteasome/UCH37, Ub-AMC cleavage fluorescence;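 active means mean of two replicates above 20%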;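 further: 0% = compound-free wells with enzyme and 100% = wells lacking proteasome; stock transfer was 100 nL into about 20 µL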
Target sequence (Q9Y5K5 whole entry, looked up): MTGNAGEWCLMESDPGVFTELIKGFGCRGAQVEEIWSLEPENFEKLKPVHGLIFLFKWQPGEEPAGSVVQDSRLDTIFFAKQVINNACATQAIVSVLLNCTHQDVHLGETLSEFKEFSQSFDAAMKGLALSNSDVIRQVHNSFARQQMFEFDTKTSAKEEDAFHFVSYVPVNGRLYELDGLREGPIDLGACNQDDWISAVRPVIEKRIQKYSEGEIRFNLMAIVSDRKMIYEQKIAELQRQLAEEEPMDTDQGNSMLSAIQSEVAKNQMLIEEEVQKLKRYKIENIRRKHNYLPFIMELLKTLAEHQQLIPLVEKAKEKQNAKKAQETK
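Material: human UCH37 enzyme supplied as purified proteasome complex / Amount: 0.15 nM proteasome as dispensed / Buffer or medium: pH 7.4 Tris-HCl (50 mM) with ovalbumin, ATP-MgCl2, DTT / Times: preincubation 30 min, reaction 25 min, room temperature / Technique: AMC fluorescence from Ub-AMC cleavage, excitation 355 nm, emission 460 nm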
E coli growth: E. coli growth inhibition | Escherichia coli growth, OD600, 23 h; active compounds read low | OD600 absorbance (test concentration not listed) | 330,000 tested, 0.21% active | AID 1053175;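 active means OD600 absorbance below the run mean of sample wells minus 3.6 SD, in any replicate, cut at about 0.56 in these data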;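 further: stock transfer was 300 nL into about 60 µL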
* hit, by the source's call; ? = inconclusive; · = no result given.

1	O=C(COC(=O)c1ccccn1)Nc1ccc(S(=O)(=O)N2CCOCC2)cc1
2	Fc1cccc(NC(=S)N2CCN(c3ccccn3)CC2)c1
3	Cc1c(NC(=O)c2cccc(NC(=O)Cc3ccc(Cl)cc3)c2)c(=O)n(-c2ccccc2)n1C
4	O=C(c1cn2ccccc2n1)N1CCCC(Nc2ccc(F)c(F)c2)C1 (stereo not drawn)
5	COC(=O)C(CO)NC(=O)C(C)NC(=O)CNC(=O)OCc1ccccc1 (stereo not drawn)
6	Cc1ccc(Cn2nnc3c(=O)n(CC(=O)N4CCCc5ccccc54)cnc32)cc1
assay / entry	1	2	3	4	5	6
A1 inh	0.5	0.2	1.0	0.0	-1.5	0.6
HNF4A DNA FP	-7.0	4.9	4.1	-3.4	0.3	-2.5
UCH37 DUB inh	-1.2	0.4	1.0	-1.8	0.1	0.4
LANA-H2B inh	1.6	-0.1	2.7	1.8	0.0	2.3
E coli growth	0.76	0.6	0.65	0.69	0.71	0.65
B2AR ag	-4	1	-7	6	12	-6
Vif A3G	2%	·	-3%	3%	2%	1%

7	O=C(N/N=C1\CC2CC=CC12)c1ccccc1Cl (stereo not drawn)
8	CC1CC(NS(=O)(=O)c2cc3c4c(c2)CCN4C(=O)CC3)CC(C)(C)C1 (stereo not drawn)
9	O=C(NCc1ccco1)C1CCCN1C(=O)Nc1ccc(Cl)cc1 (stereo not drawn)
10	COc1ccc(-c2cc(CNC(=O)CCl)on2)cc1
11	Cc1ccc(-c2c(C(=O)NCc3ccccc3)oc(=O)c3ccccc23)cc1
12	O=C(CC1SC(=Nc2ccccc2)N(CCc2ccccn2)C1=O)Nc1ccc(F)cc1 (stereo not drawn)
assay / entry	7	8	9	10	11	12
A1 inh	0.6	-0.6	1.4	0.5	1.1	0.6
HNF4A DNA FP	3.0	0.8	0.8	1.3	0.7	2.1
UCH37 DUB inh	·	4.1	3.3	1.7	2.7	5.4
LANA-H2B inh	-1.8	3.8	0.7	-1.5	-2.7	0.7
E coli growth	·	0.69	0.7	0.69	0.69	0.71
B2AR ag	3	8	-1	0	-3	-11
Vif A3G	0%	-1%	1%	-1%	·	·

Eleven entries from above in another layout.
no.	Compound	A1 inh	HNF4A DNA FP	UCH37 DUB inh	LANA-H2B inh	E coli growth	B2AR ag	Vif A3G
1	O=C(COC(=O)c1ccccn1)Nc1ccc(S(=O)(=O)N2CCOCC2)cc1	0.5	-7.0	-1.2	1.6	0.76	-4	2%
2	Fc1cccc(NC(=S)N2CCN(c3ccccn3)CC2)c1	0.2	4.9	0.4	-0.1	0.6	1	·
3	Cc1c(NC(=O)c2cccc(NC(=O)Cc3ccc(Cl)cc3)c2)c(=O)n(-c2ccccc2)n1C	1.0	4.1	1.0	2.7	0.65	-7	-3%
4	O=C(c1cn2ccccc2n1)N1CCCC(Nc2ccc(F)c(F)c2)C1 (stereo not drawn)	0.0	-3.4	-1.8	1.8	0.69	6	3%
5	COC(=O)C(CO)NC(=O)C(C)NC(=O)CNC(=O)OCc1ccccc1 (stereo not drawn)	-1.5	0.3	0.1	0.0	0.71	12	2%
6	Cc1ccc(Cn2nnc3c(=O)n(CC(=O)N4CCCc5ccccc54)cnc32)cc1	0.6	-2.5	0.4	2.3	0.65	-6	1%
7	O=C(N/N=C1\CC2CC=CC12)c1ccccc1Cl (stereo not drawn)	0.6	3.0	·	-1.8	·	3	0%
8	CC1CC(NS(=O)(=O)c2cc3c4c(c2)CCN4C(=O)CC3)CC(C)(C)C1 (stereo not drawn)	-0.6	0.8	4.1	3.8	0.69	8	-1%
9	O=C(NCc1ccco1)C1CCCN1C(=O)Nc1ccc(Cl)cc1 (stereo not drawn)	1.4	0.8	3.3	0.7	0.7	-1	1%
10	COc1ccc(-c2cc(CNC(=O)CCl)on2)cc1	0.5	1.3	1.7	-1.5	0.69	0	-1%
11	Cc1ccc(-c2c(C(=O)NCc3ccccc3)oc(=O)c3ccccc23)cc1	1.1	0.7	2.7	-2.7	0.69	-3	·

Further records follow:
13	O=C(COC(=O)c1c(Cl)cccc1Cl)Nc1cc(Cl)ccc1Oc1ccccc1
14	CC(OC(=O)c1ccncc1)C(=O)Nc1ccc([N+](=O)[O-])cc1Cl (stereo not drawn)
15	O=C(N[C@@H](Cc1ccccc1)C(=O)OCc1ccccc1)c1nc[nH]c1C(=O)NC1CCNCC1
16	CC(c1ccccc1)C1CC(=O)N(c2cc(Cl)ccn2)C1=O (stereo not drawn)
17	Cn1ncc2c(N3CCN(c4ccccc4F)CC3)ncnc21
18	O=C(Cc1cccs1)Nc1cccnc1
assay / entry	13	14	15	16	17	18
A1 inh	1.9	0.1	-0.6	0.2	-0.6	-0.4
HNF4A DNA FP	0.4	-6.6	-0.2	1.1	5.7	-5.2
UCH37 DUB inh	3.0	6.5	-1.7	3.3	0.5	2.4
LANA-H2B inh	1.2	-0.8	2.8	-3.7	-7.3	1.1
E coli growth	0.73	0.67	0.76	0.67	0.7	0.71
B2AR ag	11	-3	-7	-4	-2	-1
Vif A3G	11%	8%	·	-5%	6%	15%

19	CCN1CC(CN(C)Cc2nc(-c3ccc(Cl)cc3)no2)CC1=O (stereo not drawn)
20	COCc1c(C(=O)N(C)Cc2ccccc2N2CCCC2)oc2ccccc12
21	CCc1nc(N2CCCCC2C)c2oc3ccccc3c2n1 (stereo not drawn)
22	COc1ccc(CNS(=O)(=O)NCc2ccccc2)cc1OC
23	CCOc1ccc(N/C=C/C(=O)c2cc(OC)c(OC)c(OC)c2)cc1
24	CCc1ccc(NC2=CC(=O)CC(c3ccco3)C2)cc1 (stereo not drawn)
assay / entry	19	20	21	22	23	24
A1 inh	0.0	·	-0.3	2.0	0.5	0.1
HNF4A DNA FP	-2.7	1.7	0.9	-4.0	4.4	-1.9
UCH37 DUB inh	1.7	-0.6	-6.2	3.7	2.2	3.5
LANA-H2B inh	-1.2	·	-5.4	7.3	-0.4	-2.7
E coli growth	0.69	0.7	0.65	0.7	0.62	0.68
B2AR ag	2	-1	-1	3	8	-4
Vif A3G	·	1%	0%	-4%	·	?

25	Cc1ccc(/C=N/NC(=O)NC23CC4CC(CC(C4)C2)C3)o1
26	Cc1ccc(C(=O)CCC(=O)NCc2ccc(Cl)cc2)cc1
27	CC(C)c1ccc(/C=C2\NC(=S)N(Cc3cccnc3)C2=O)cc1
28	O=C(COC(=O)CSc1ccc([N+](=O)[O-])cc1)NCc1ccco1
29	CCN1C(=O)c2cccc3c(S(=O)(=O)Nc4ccc(OC)cc4OC)ccc1c23
30	CCn1c(C)cc(/C=C2/SC(=S)N(CC(=O)O)C2=O)c1C
assay / entry	25	26	27	28	29	30
A1 inh	0.9	-1.4	0.2	0.4	0.9	0.8
HNF4A DNA FP	-0.7	6.9	-3.3	3.4	-1.9	44*
UCH37 DUB inh	·	0.8	3.0	3.6	-2.2	21*
LANA-H2B inh	-1.2	-2.7	5.5	2.1	6.2	-2.5
E coli growth	·	0.68	0.72	0.71	0.66	0.73
B2AR ag	6	10	5	-8	-26	2
Vif A3G	·	1%	-3%	1%	-1%	9%

31	CCCC(=O)OC(C(=O)Nc1cc(C(F)(F)F)ccc1Cl)c1ccccc1 (stereo not drawn)
32	CC1CC(C)CN(CCCNC(=O)CN2C(=O)CSc3ccc(S(=O)(=O)N4CCOCC4)cc32)C1 (stereo not drawn)
33	CCn1c(SCC(=O)NC2CCCC2)nnc1-c1ccco1
34	COc1ccc(S(=O)(=O)NCC(=O)N(CC(=O)NCc2ccco2)Cc2ccc(F)cc2)cc1
35	CCOC(=O)C(C)NC(=O)CCc1nnc2ccc(N3CCCCC3)nn12 (stereo not drawn)
assay / entry	31	32	33	34	35
A1 inh	-0.3	-0.2	0.1	-0.2	-0.8
HNF4A DNA FP	1.2	-4.1	-0.3	3.7	0.1
UCH37 DUB inh	0.2	4.1	-0.3	2.6	5.2
LANA-H2B inh	-1.2	-2.3	2.2	-0.6	-4.9
E coli growth	0.67	0.68	0.65	0.69	0.69
B2AR ag	-8	-6	7	-5	2
Vif A3G	·	-11%	·	·	-7%

High-throughput results deposited in PubChem by several laboratories.
